# Source: PubChem BioAssay
# Measles inh: inhibitors of measles virus growth in cells, primary screen, measles RdRp inhibitor project, cell-based, single point, HTS; z-score (concentration not given with the values); AID 745, 2007; infected Vero cells, GFP fluorescence, 64 h; hits give low values; hit rate 0.1% among 33,000;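 active means z-score under -3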;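 further: score is relative to mean and SD of the compound wells of a plate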
# Numbers without * were called inactive. Not all compounds are listed, so the mix of outcomes need not match the whole.
CC1CC(C)CN(C(=O)c2ccc(S(=O)(=O)N3CC(C)CC(C)C3)cc2)C1 (centres undefined)
- Measles inh: 1.5

CC1=C(C(=O)Nc2ccc(Br)cn2)C(c2cccs2)C2=C(CC(C)(C)CC2=O)N1 (centres undefined)
- Measles inh: -0.08

Cc1ccc(NC(=O)c2cc(S(=O)(=O)NCCc3ccc(Cl)cc3)ccc2F)cc1F
- Measles inh: 0.58

O=C(NC1CCCC1)c1cc(=O)[nH]c2ccc(S(=O)(=O)N3CCCC3)cc12
- Measles inh: -0.49

Cc1cc(N2CCOCC2)nc2ccc(NC(=O)CCC(=O)N3CCCC3)cc12
- Measles inh: 0.11

O=C(Nc1nnc(-c2ccc(F)cc2)o1)c1ccc(S(=O)(=O)N2CCCCCC2)cc1
- Measles inh: 2.1

CCCCN1C(=O)NC(NC(=O)c2ccco2)(C(F)(F)F)C1=O (centres undefined)
- Measles inh: -0.01

COc1ccc(OCC(=O)N2CCN(S(=O)(=O)c3ccc4ccccc4c3)CC2)cc1
- Measles inh: -1.1

Cc1ccsc1C1C2=C(CC(C)(C)CC2=O)OC2=C1C(=O)CC(C)(C)C2
- Measles inh: -0.53

CC(NC(=O)c1ccc(Cn2c(=S)[nH]c3ccsc3c2=O)cc1)c1ccccc1 (centres undefined)
- Measles inh: -0.38

CS(=O)(=O)C1Cc2ccccc2CN1C(=O)Nc1cccc(Cl)c1 (centres undefined)
- Measles inh: 1.1

Cc1ccc(Cl)cc1-n1c(CCC(=O)O)ccc1-c1cccs1
- Measles inh: -0.56

CCOC(=O)c1c(NC(=O)CCCn2nc([N+](=O)[O-])c(Cl)c2C)sc2c1CCC(C)C2 (centres undefined)
- Measles inh: -0.42

COc1cc(C2C3=C(CC(C)(C)CC3=O)OC3=C2C(=O)CC(C)(C)C3)ccc1OCc1ccccc1
- Measles inh: 2

CCOC(=O)CSc1nnc(NCC(=O)OC)c(=O)[nH]1
- Measles inh: -0.61

CCc1ccc(NC(=O)c2cc3ccccc3oc2=O)cc1
- Measles inh: 0.46

Cc1nc(Sc2nc(C)nc3sc4c(c23)CCC4)c2c3c(sc2n1)CCC3
- Measles inh: 0.76

CC(=O)N1C(=O)N(C(C)=O)C2C1N(C(C)=O)C(=O)N2C(C)=O (centres undefined)
- Measles inh: 0.78

CCOC(=O)C1CCCN(C(=O)c2ccc(Cn3c(=S)[nH]c4cc(C(=O)OC)ccc4c3=O)cc2)C1 (centres undefined)
- Measles inh: -0.22

O=C1C(=O)N(Cc2cccnc2)C(c2ccc(Br)cc2)/C1=C(\O)c1ccccc1 (centres undefined)
- Measles inh: 1.7

CCN(CC)c1ccc2cc(-c3nc4ccccc4[nH]3)c(=Nc3ccccc3)oc2c1
- Measles inh: 5.9

Cc1ccc(CSc2nnc3c(n2)[nH]c2ccccc23)cc1
- Measles inh: 0.46

Cc1ccc(Nc2c3c(nc4ccc(C)cc24)CCC3)cc1
- Measles inh: -0.48

CCCC1=C(C(=O)OCC)C(c2ccc(Br)cc2)n2ncnc2N1 (centres undefined)
- Measles inh: -0.68

COc1ccccc1NC(=O)c1c(NCc2cccnc2)sc2c1CCCC2
- Measles inh: -0.52

CC1CCN(C(=O)CSc2nc(-c3cccs3)nc3c2c(=O)n(C)c(=O)n3C)CC1
- Measles inh: 0.69

COc1ccc(Cc2nc(C)cc(Cl)n2)cc1Cl
- Measles inh: -3.8*

COC(=O)C(C)Sc1nc2c([nH]c3ccccc32)c(=O)n1-c1cccc(OC)c1 (centres undefined)
- Measles inh: 0.5

O=C1C(c2ccc(F)cc2)N(Cc2ccc3c(c2)OCO3)C(=O)CN1C1CCCCC1 (centres undefined)
- Measles inh: 0.51

COc1ccc(C(=O)Cn2c3ccccc3n3nc(-c4ccco4)nc23)cc1OC
- Measles inh: -0.49

O=C1CCCC2=C1C(c1cccc(Cl)c1)Nc1ccc(C(=O)c3ccccc3)cc1N2 (centres undefined)
- Measles inh: 0.4

COc1ccc(-c2noc(-c3ccc4c(c3)OCO4)n2)cc1
- Measles inh: -1.9

O=C(O)c1ccc2c(c1)ncn2-c1ccc(Cl)c(C(F)(F)F)c1
- Measles inh: -0.05

O=C(Nc1ccc(S(=O)(=O)Nc2ccc(F)cc2)cc1)C(F)(F)F
- Measles inh: 0.29

COc1ccc(OCCNc2c([N+](=O)[O-])c(=O)oc3ccccc23)cc1
- Measles inh: -0.74

CCOCCCNC(=O)c1ccc(N2CCCC2=O)cc1
- Measles inh: -0.32

CC(=O)C1=C(O)C(=O)N(CO)C1c1ccc(Br)cc1 (centres undefined)
- Measles inh: 1.2

COc1ccc(C(=O)N2CCCC2=NC#N)cc1
- Measles inh: -0.14

Cc1ccc([N+](=O)[O-])cc1NC1=NS(=O)(=O)c2ccccc21
- Measles inh: -0.79

O=c1cc(CO)oc(CN2CCCC2)c1O
- Measles inh: 0.93

O=c1c(=Nc2ccccc2O)c(=O)c2ccccc12
- Measles inh: -0.53

CCC(C)Sc1nc2c(c(=O)n1C)SC(C)C2 (centres undefined)
- Measles inh: 0.5

COc1cccc(C2CC(=O)C3=C(C2)NC(C)=C(C(=O)OC2CCCC2)C3c2ccc(C)s2)c1 (centres undefined)
- Measles inh: -0.25

CC1=NN(C(=O)COc2cc(C)c(Cl)c(C)c2)C(O)(C(F)(F)F)C1 (centres undefined)
- Measles inh: -0.22

Cc1cc(C)n(CC(O)COc2ccccc2Br)n1 (centres undefined)
- Measles inh: -0.64

CCCc1nc(NC(C)=O)c(C#N)c(-c2ccccc2OC)c1CC
- Measles inh: -0.52

CCCOc1ccc(C(=O)Nc2c(C)ccc3nsnc23)cc1
- Measles inh: 1.9

Cc1ccc(C(C)C)c(OCC(=O)Nc2ccc(S(=O)(=O)Nc3nccs3)cc2)c1
- Measles inh: -0.22

N#Cc1cc2c(nc1SC1CC(=O)N(c3ccc(Br)cc3)C1=O)CCC2 (centres undefined)
- Measles inh: 0.79

CCN1c2ccccc2NC2N=C(OC)C(c3ccccc3)C21 (centres undefined)
- Measles inh: 5.9

CCCCOc1ccc(-c2nnc3n2N=C(c2ccc(Br)cc2)CS3)cc1
- Measles inh: -0.29

Brc1ccc(-c2noc(-c3cccs3)n2)o1
- Measles inh: 0.12

CCCCc1ccc(NC(=O)c2cccc(C)c2)cc1
- Measles inh: -1.4

Cc1ccc(C)c(CN2C(=O)CSc3ccc(C(=O)NC(C)C)cc32)c1
- Measles inh: -0.91

CCOc1cc(C2NC(=O)NC(C)=C2C(=O)OCC2CCCCC2)ccc1O (centres undefined)
- Measles inh: -0.53

O=c1c2c(n3cnnc3n1CCc1ccccc1)-c1ccccc1CC21CCCCC1
- Measles inh: 0.83

S=c1nc(NCCc2ccccc2Cl)c2ccccc2[nH]1
- Measles inh: 0.12

COc1ccc(S(=O)(=O)CCC(=O)NC(c2ccccc2)c2ccccc2)cc1
- Measles inh: -1.1

CNC(=O)N(C1=NCC(C)(C)S1)c1ccc(Cl)cc1
- Measles inh: -0.4

CCOc1ccc(NS(=O)(=O)c2ccc3[nH]cc(C(=O)NC(C)c4ccc5c(c4)OCCO5)c(=O)c3c2)cc1 (centres undefined)
- Measles inh: -0.46

# Looked up by structure from the list above:
CCCCc1ccc(NC(=O)c2cccc(C)c2)cc1
- Measles inh: -1.4

CNC(=O)N(C1=NCC(C)(C)S1)c1ccc(Cl)cc1
- Measles inh: -0.4

Brc1ccc(-c2noc(-c3cccs3)n2)o1
- Measles inh: 0.12

CCOc1cc(C2NC(=O)NC(C)=C2C(=O)OCC2CCCCC2)ccc1O (centres undefined)
- Measles inh: -0.53

# Next section.
O=C(Cn1c(=O)n(CCC(=O)N2CCc3ccccc3C2)c(=O)c2ccccc21)N1CCN(c2ccccc2)CC1
- Measles inh: -0.55

Nc1cccc2[nH]cnc12
- Measles inh: 1

CC(C)c1ccc(C2/C(=C(\O)c3ccc(F)cc3)C(=O)C(=O)N2c2nncs2)cc1 (centres undefined)
- Measles inh: 0.44

CC(=O)N1CCc2cc(S(=O)(=O)NCCC(=O)NCc3ccccc3Cl)ccc21
- Measles inh: 1.3

O=C1C(=O)N(CCO)C(c2ccc(O)cc2)/C1=C(\O)c1ccc(Cl)cc1 (centres undefined)
- Measles inh: 0.54

COc1ccc(CN2C(=O)CN(C3CCCCCC3)C(=O)C2c2ccc(C)cc2)cc1 (centres undefined)
- Measles inh: 0.26

Cc1c(N=Cc2ccc(-c3ccccc3[N+](=O)[O-])o2)c(=O)n(-c2ccccc2)n1C
- Measles inh: -0.45

COc1cc(C(=O)Nc2cccnc2)ccc1OCc1ccc(Cl)cc1
- Measles inh: -0.8

COc1cccc(NS(=O)(=O)c2ccc3[nH]cc(C(=O)N4CCCC4)c(=O)c3c2)c1
- Measles inh: 0.19

Cc1nc2cc(NC(=O)CN3C(=O)c4ccccc4C3=O)ccc2n1-c1ccccc1
- Measles inh: 0.44

CCC(C)NS(=O)(=O)c1cccc2nsnc12 (centres undefined)
- Measles inh: 0.18

O=C(Nc1cccnc1)c1cc(-c2ccc3c(c2)OCO3)on1
- Measles inh: -0.13

CCOC(=O)c1ccc(NS(=O)(=O)c2ccc(-c3ccccc3)cc2)cc1
- Measles inh: -1.2

Cc1ccc(C)c(Oc2coc3cc(OCc4ccccc4Cl)ccc3c2=O)c1
- Measles inh: -0.06

CN(C(=O)c1ccc(N2CCN(c3ccccn3)CC2)c([N+](=O)[O-])c1)C1CCCCC1
- Measles inh: -1.7

BrC12CC3CC(C1)CC(Br)(C3)C2
- Measles inh: 0.18

CC(C)C1Cc2c(sc3nc(SCc4ccccc4)nc(N)c23)CO1 (centres undefined)
- Measles inh: 1.9

CCOC(=O)c1sc(NC(=O)c2ccc(OC)c(OC)c2)nc1C
- Measles inh: 0.26

C=CCn1c(SCC(=O)N2CCOCC2)nc2sc3c(c2c1=O)CCC3
- Measles inh: 0.35

C=CCN1CCC(=O)Nc2ccccc21
- Measles inh: -0.89

COc1ccc(C=Nc2ccccc2C(=O)O)cc1
- Measles inh: 0.85

CCOCCCNCc1ccc([N+](=O)[O-])cc1
- Measles inh: 0.38

O=C(O)c1ccc(S(=O)(=O)c2ccc3c(c2)C(=O)N(c2ccc4c(c2)OCO4)C3=O)cc1
- Measles inh: 0.08

CC1CCCN(CCCNS(=O)(=O)c2cc(Br)cc3c2N(C(=O)C2CC2)CC3)C1 (centres undefined)
- Measles inh: 2.4

CN1C(=O)C(CC(=O)Nc2ccc(F)cc2)N(CCc2ccccc2)C1=S (centres undefined)
- Measles inh: -1.6

O=C(CC1(Cc2ccccc2)C(=O)c2ccccc2C1=O)c1ccccc1
- Measles inh: 0.24

O=C(NC1CCCc2ccccc21)C1CCN(S(=O)(=O)c2cccc3cccnc23)CC1 (centres undefined)
- Measles inh: 0.54

Cc1cccc(NC(=O)C2C3C=CC4(O3)C2C(=O)N(C2CCCC(C)C2C)C4C(=O)NC2CCCCC2C)c1 (centres undefined)
- Measles inh: -0.68

Cc1nc2ccccc2n1CC(=O)c1ccccc1
- Measles inh: -0.27

COc1ccc(N=Cc2ccc(Sc3nc4ccccc4[nH]3)o2)cc1
- Measles inh: -0.8

Cc1ccc2oc(-c3cccc(NC(=O)COc4ccc(Br)cc4)c3C)nc2c1
- Measles inh: 0.74

O=c1nc(C=Cc2ccc(-c3ccccc3[N+](=O)[O-])o2)cc(C(F)(F)F)[nH]1
- Measles inh: -0.39

O=C(NCc1ccccc1Cl)C1CCN(S(=O)(=O)c2ccccc2)CC1
- Measles inh: 1.3

COc1ccc(NC(=O)c2sc3nc(C)c(C(=O)Nc4ccc(C)cc4C)c(-c4ccco4)c3c2N)cc1OC
- Measles inh: 1.5

COc1cc(-n2cc(-c3ccccc3)n(CC(=O)Nc3ccccc3C)c2=O)cc(OC)c1OC
- Measles inh: 1.1

Cc1ccc2cc3cc(C(=O)N4CCN(C)CC4)sc3nc2c1
- Measles inh: -0.77

CCC(Cc1ccccc1)n1c(SCc2cc(=O)n3cc(Cl)ccc3n2)nc2ccccc2c1=O (centres undefined)
- Measles inh: -0.53

CCOC(=O)c1cccc(N2C(=O)C3C4c5ccccc5C(CC)(c5ccccc54)C3C2=O)c1 (centres undefined)
- Measles inh: 1.4

C=C=C(n1cccc1)C(C)(C)O
- Measles inh: 0.63

Oc1ccc(CNC2CCCCC2)cc1
- Measles inh: 0.23

COc1ccc(-c2noc(-c3ccc(C(C)(C)C)cc3)n2)cc1OC
- Measles inh: -0.3

CCOC(=O)c1ccc(NCc2ccc(OC)cc2)c([N+](=O)[O-])c1
- Measles inh: 0.34

COc1ccc(CNC(=O)c2cn(C)c(=O)c3c2c2ccccc2n3C)cc1
- Measles inh: 0.24

COc1cccc2c1OC1(C)CC2NC(=O)N1c1cccc(C(F)(F)F)c1 (centres undefined)
- Measles inh: -0.23

C=CCSc1nnc(-c2ccncc2)o1
- Measles inh: -1.1

COc1cc(C(=O)NCCSc2c[nH]c3ccccc23)cc(OC)c1OC
- Measles inh: 0.75

COc1ccc(C(=O)Nc2ccc(-c3nc4ccccc4o3)cc2)cc1[N+](=O)[O-]
- Measles inh: -0.3

Cc1ccc(-c2noc(CSc3nc(N)cc(=O)[nH]3)n2)cc1
- Measles inh: -0.09

Cc1cc(NC(=O)CCCN2C(=O)C3C4C=CC(C4)C3C2=O)n[nH]1 (centres undefined)
- Measles inh: -0.25

CC(=O)Nc1nc(C)c(-c2cn3cccnc3n2)s1
- Measles inh: -0.95

COc1ccc(Br)cc1C1C2=C(CC(C)(C)CC2=O)OC2=C1C(=O)CC(C)(C)C2
- Measles inh: 0.39

C=CCN1C(=S)NC2c3cccc(OCC)c3OC1(C)C2C (centres undefined)
- Measles inh: -0.12

CC(=O)Nc1nonc1C(=O)N1CCC(C)CC1
- Measles inh: 0.34

Cc1ccc(C)c(NC(=O)c2cc(S(=O)(=O)N(C)Cc3ccccc3)ccc2F)c1
- Measles inh: 0.23

CC1(C)CC(NC(=O)CCC(=O)N2C(C)(C)CC(N)CC2(C)C)CC(C)(C)N1
- Measles inh: 0.15

O=[N+]([O-])c1ccc2nc(-c3ccc(F)cc3)c(-c3ccc(F)cc3)nc2c1
- Measles inh: 0.63

CC1(C)CC(=O)C2=C(C1)Nc1ccccc1N1C(=O)c3ccccc3C21 (centres undefined)
- Measles inh: 0.58

CC1(C)CC(CCN2C(=O)CCC2=O)(Cc2ccccc2)CCO1 (centres undefined)
- Measles inh: -0.26

O=C(Nc1cccc(NC(=O)c2sc3ccccc3c2Cl)c1)c1ccco1
- Measles inh: -0.69

Cc1ccccc1Nc1c(-c2ccc(Cl)cc2)nc2ncccn12
- Measles inh: 0.73

O=C(CCc1nc(-c2ccccc2F)no1)N1CCN(C2CCCCC2)CC1
- Measles inh: -0.02
